# Prx2 Sm inh: Schistosoma Mansoni Peroxiredoxins (Prx2); AID 448, 2006; actives 0.07% (n = 65,000); Schistosoma mansoni peroxiredoxin 2 (Prx2); S. mansoni Prx2 activity coupled to TGR/GSH (TGR is thioredoxin glutathione reductase), NADPH fluorescence loss, qHTS; some inactives read as strong as hits; Potency, µM; active means full or partial inhibition curve with a strong effect at the top dose; inconclusive means weaker partial or single-point curve; inactive means no accepted curve; also: series up to 57 µM; many of its hits are not listed in these tables
#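 qHTS, coupled TGR/Prx2 format; 15 min compound preincubation at RT; reaction started with H2O2 (2.5 mM aliquot); kinetic NADPH fluorescence decrease, ex 365/em 450 nm.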
# LT uptake inh: qHTS Assay for Anthrax Lethal Toxin Internalization; AID 912, 2007; actives 0.67% (n = 70,000); Potency, µM (doses to about 40 µM), without a hit: top-dose activity change, negative = inhibition, hits mostly inhibitors; Cells, anthrax lethal toxin internalization, FRET ratio (460/530); active = well fitted falling ratio curve with the 530 nm signal flat; inconclusive = other ratio curves, or a change in one channel alone; inactive = flat curves in the ratio and both channels; the % refers to the ratio; also: % is scaled to controls: 0 for no effect and ±100 for the full control effect; nearly all actives have a fitted effect of over 50% in size; tested in ME-180 cells; beta-lactamase reporter
# Active calls of the source: *; ? = inconclusive; nt = not tested or not shown; & = joins results of further samples; [ ] = another dose, or the depositor's remark. Potency is read from the fitted curve at half-maximal effect. An excerpt, so the mix of outcomes need not match the whole.
SMILES,Prx2 Sm inh,LT uptake inh
Cc1nc(=O)c(-c2ccccc2)c(C)n1CC1CCCO1 (centres undefined),>57,7%
O=C(OCC(=O)N1CCCC1)c1ccco1,>57,11%
Cc1cc(S(=O)(=O)N(Cc2ccc(F)cc2)CC2CCCO2)ccc1-n1cnnn1 (centres undefined),>57,?
CCCCSC(=O)Nc1ccccc1,nt,-15%
CCC(C)[C@H](NC(=O)NCc1cccs1)C(=O)O (some centres undefined),>57,-1%
CCOC(=O)C1CCCN(C/C(O)=C(\C#N)c2nc(-c3ccccc3)cs2)C1 (centres undefined),>57,5%
CCOC(=O)Cc1nnc2c(Nc3ccc(C)cc3)nc3nonc3n12,>57,-25%
COc1cc(-c2nnc(-c3cccnc3)o2)cc(OC)c1OC,>57,-22%
CCOc1cc(NS(C)(=O)=O)c(OCC)cc1NC(=O)c1cccs1,>57,5%
O=C(Cc1ccccc1)Nc1ccccc1CO,>57,nt
O=C(Cn1c(CN2CCCCC2)nc2ccccc2c1=O)NCc1ccco1,>57,-17%
COc1ccc(S(=O)(=O)CCC(=O)Nc2c(C)n(C)n(-c3ccccc3)c2=O)cc1,>57,6%
COc1ccc(CCNC(=O)C2CCN(Cc3nc(-c4ccccc4C)oc3C)CC2)cc1OC,>57,?
CCC(c1nnc(SCc2nc3ccccc3s2)n1Cc1ccccc1)N(C)C (centres undefined),>57,-10%
CC1CCc2nc(NC(=O)CN3CCN(c4ccccc4)CC3)sc2C1 (centres undefined),>57,-14%
O=C(CN(Cc1ccco1)C(=O)Cn1nnc(-c2ccc(F)cc2)n1)NC1CCCC1,>57,-4%
O=C(O)/C=C\C(=O)Nc1ccc2c(c1)-c1ccccc1C2,>57,-11%[8 µM]
CCn1c(CC(=O)Nc2ccc(C)cc2)nnc1SCC(=O)N1CCN(c2ccccc2)CC1,>57,5%
COCC(=O)N(C)c1nnc(-c2cnccn2)s1,>57,-3%
O=C(c1ccco1)N1CCN(CCCCN2C(=O)c3ccccc3C2=O)CC1,>57,2%
COc1ccc(CC(=O)n2nc(-c3ccccc3)nc2NCc2ccco2)cc1,>57,2%
Cc1ccc(C)c(C(=O)CSc2n[nH]c(C(C)C)n2)c1,>57,-4%
C=CCn1c(SCc2c(C)noc2C)nnc1C1COc2ccccc2O1 (centres undefined),>57,?
O=c1[nH]c(Cn2nnc(-c3ccccc3)n2)nc2scc(-c3ccccc3)c12,>57,-9%
CCCCCCNC(=O)Cc1nc2nc(C)cc(C)n2n1,>57,-1%
Cn1c(=O)n(C)c2cc(NS(C)(=O)=O)ccc21,>57,-1%
COC(=O)CSc1nnc(-c2ccncc2)n1N,>57,-1%
CCOC(=O)N1CCN(C(=O)CSc2nnc(CNC(=O)c3c(F)cccc3Cl)o2)CC1,>57,11%
O=C(O)CCCC(=O)OCCCCc1cccs1,nt,2%
CS(=O)(=O)N(Cc1ccco1)Cc1ccccc1Cl,>57,1%
CCCOc1ccc(N2C(=O)CC(N3CCN(c4nc5ccccc5s4)CC3)C2=O)cc1 (centres undefined),>57,-6%
CC(C)c1ccc(C(O)(C(=O)O)c2ccc(C(C)C)cc2)cc1,>57,-7%[8 µM]
O=C(O)[C@@H]1[C@H](C(=O)O)[C@H]2C(=O)C=C[C@H]1N2Cc1ccccc1,>57,?
Cc1cc(=O)n2nc(-c3ccccc3)sc2c1C#N,>57,?
CN(C)S(=O)(=O)c1ccc(/C(O)=C2/C(=O)C(=O)N(Cc3cccnc3)C2c2ccco2)cc1 (centres undefined),>57,-8%
Cc1cc(NC(=O)COc2ncnc3sc(C)c(C)c23)no1,>57,?
CCCOP(=O)(c1ccc(N(C)C)cc1)C(O)c1ccccc1OC (centres undefined),>57,-3%
CCOCCCNC(=O)CN1C(=O)CSc2ccccc21,>57,6%
NC1(C(=O)O)CC(C(=O)O)C1 (centres undefined),>57,-2%&3%
CCCN(CCC)c1nc(C)cc(C(C#N)c2nc3ccccc3o2)n1 (centres undefined),>57,6%
CC(C)(C)SCCNC(=O)CN1C(=O)c2ccccc2S1(=O)=O,>57,-5%
COc1ccc(N2CCN(CC(=O)Nc3cc4c(cc3C(C)=O)OCO4)CC2)cc1,>57,3%
CCC1(CC)C(=O)NC(=O)NC1=Nc1cccc(OC)c1,>57,-6%
Cc1cc(CN2C(=O)c3ccccc3C2=O)no1,>57,?
O=C(Nc1ccccc1)c1ccc(S(=O)(=O)NCc2ccco2)cc1,>57,?
COC(=O)CNS(=O)(=O)c1ccc(Cc2ccc(S(=O)(=O)NCC(=O)OC)cc2)cc1,>57,?
CCC(=O)OC1CSc2nc3ccccc3n2C1 (centres undefined),>57,5%
COc1cc(C2C(C#N)=C(N)Oc3n[nH]c(-c4ccccn4)c32)cc(OC)c1OC (centres undefined),>57,8%
CCc1nnc(NC(=O)CSc2nnc(-c3ccoc3C)n2CC(C)C)s1,>57,-1%
Cc1cccc(Cn2c(N(C)CCO)nc3c2c(=O)[nH]c(=O)n3C)c1,>57,13%
Cn1c(CN2CCCC2)nc2cc(NC(=O)Nc3ccccc3)ccc21,>57,-6%
O=C(NCc1ccco1)c1cnc2ccccn2c1=O,>57,7%
Cc1cccc2nc(Cn3c(=O)n(CCC(=O)NCc4ccco4)c(=O)c4sccc43)cc(=O)n12,>57,-2%
c1cc2c3c(c1)ccc1cccc(c13)C2,nt,?
O=C1CC(=O)CC(c2ccccc2Cl)C1,nt,2%
COC(=O)c1ccc(N2CCN(C)CC2)c(NC(=O)COc2ccc(OC)cc2)c1,>57,nt
O=C(NCc1ccc2c(c1)OCO2)c1cccc(S(=O)(=O)N2CCOCC2)c1,>57,-2%
COc1cc(C(=O)N2CCN=C2c2ccccc2)cc(OC)c1OC,>57,-11%
Cc1ccc2[nH]c(=O)c(C(c3nnnn3C(C)(C)C)N(Cc3ccco3)CC3CCCO3)cc2c1 (centres undefined),>57,?
CCOC(=O)Cc1nc2ccccc2[nH]1,>57,11%

# Continued:
SMILES,Prx2 Sm inh,LT uptake inh
O=C(NC1CCCC1)c1cnn2c(C(F)(F)F)cc(-c3ccc4c(c3)OCO4)nc12,>57,-11%
CC(C)NC(=O)C(C)n1cccc1C(=O)c1ccccc1 (centres undefined),>57,-1%
Cn1c(=O)c2c(nc(SCC(=O)O)n2Cc2cccc(C(F)(F)F)c2)n(C)c1=O,>57,3%
Cc1ccccc1-c1nc(CS(=O)(=O)CC(=O)NCCCN2CCCC2)c(C)o1,>57,3%
Cn1cnnc1SCC(=O)N1CCC(Cc2ccccc2)CC1,>57,-10%
O=S(=O)(Nc1cccc2cn[nH]c12)c1ccc(F)cc1,>57,0%
O=C1CCc2cc(S(=O)(=O)N3CCN(c4cccc(Cl)c4)CC3)ccc2N1,>57,15%
O=C(Nc1ccccc1)N1CCC2(CC1)CCN(C(=O)c1cccc(F)c1)CC2,>57,?
CC(C)c1ccc(C(c2c(O)c3ccccc3oc2=O)c2c(O)c3ccccc3oc2=O)cc1,>57,9%[8 µM]
COc1ccc(C2C(C(=O)NC(C)C)c3ccccc3C(=O)N2C)cc1OC (centres undefined),>57,8%
COc1ccc(CCNC(=O)c2cc(C(C)C)on2)cc1OC,>57,-5%
COc1ccc(-n2c(=O)c(-c3ccc(Cl)cc3)nc3cncnc32)cc1,>57,-16%
CCOC(=O)N1CCN(S(=O)(=O)c2cc(Br)cc3c2N(C(=O)CC)CC3)CC1,>57,-14%
CN1CCN(CCCNC(=O)c2cc3c(=O)oc4ccccc4c3s2)CC1,>57,-7%
Cn1c(=O)c2cn3c(c2n(C)c1=O)C(c1ccccc1)CC(c1ccccc1)=N3 (centres undefined),>57,-64%
O=C(CCNS(=O)(=O)c1cccc2nsnc12)N1CCc2ccccc21,>57,0%
CC(=O)N1CC=CC1(CC(C)C)C(=O)NCc1ccccn1 (centres undefined),nt,-6%
CCCNC(=O)NC(=O)CSc1nc2ccccc2n1CC(C)C,>57,-8%
CC(=O)N1CCC2(CC1)CN(C(=O)Nc1cccc(C#N)c1)C2,>57,1%
Clc1ccc(-n2nnnc2Sc2ncnc3sccc23)cc1,?,6.3µM*
CC1(C)NC(C)(C)C(O)(C(N)=O)C1=O (centres undefined),>57,-14%
COc1ccc(CCNC(=O)c2ccc(CN3CCOCC3)cc2)cc1,>57,-2%
CCOC(=O)c1[nH]c(C)c(C(=O)NCCCN2CCOCC2)c1C,>57,19%
CCCn1c(-c2ccc(F)cc2)nc2c(NCC3CCCN3CC)nc(C)nc21 (centres undefined),nt,-14%
CSc1ccccc1NC(=O)CCn1c(=O)sc2ccccc21,>57,-9%
CCOC(=O)c1nnn(CC(=O)Nc2cccc(Cl)c2C)c1C(=O)OCC,>57,?
Cc1ccc(S(=O)(=O)NCCCN2CCOCC2)cc1C,>57,-10%
CCOc1ccccc1CN1C(=O)c2ccccc2C1C(=O)NCC1CCCO1 (centres undefined),>57,?
Cc1ncoc1C(=O)Nc1nccs1,>57,-7%
COc1ncc2nc(CCc3ccccc3)c(=O)n(CCC#N)c2n1,>57,-1%
COc1cccc(-c2nc(CS(=O)CC(=O)NC3CC3)c(C)o2)c1 (centres undefined),>57,17%
Cc1cc(C)cc(C(=O)n2cnnc2N)c1,>57,0%
Cc1ccc(C2CC(c3ccco3)n3ncnc3N2)cc1 (centres undefined),>57,-16%
CCN(CCO)c1ccc(-n2c(N)c(C(=O)OC)c3nc4ccccc4nc32)cc1,>57,-1%
COC(=O)C1=C(CSCc2ccco2)NC(=O)NC1c1cc(C)ccc1C (centres undefined),>57,-10%
COc1ccc(S(=O)(=O)NC(CC(=O)NCC2CCCO2)c2ccco2)cc1 (centres undefined),>57,8%
O=S(=O)(c1ccccc1)c1nc(-c2ccco2)oc1NCCCN1CCOCC1,>57,1%
Cc1ccc(-c2cc(C(F)F)n3ncc(C(=O)N4CCN(c5ccccn5)CC4)c3n2)cc1,>57,0%
CCOc1ccc(Cn2nnc(C(=O)Nc3ccc(OC)cc3OC)c2N)cc1,nt,8%
O=C(Cn1cnc2c(nnn2-c2ccccc2)c1=O)N1CCOCC1,>57,5%
Cc1cc(=O)n2nc(N3CCCC3C(=O)NCCCN3CCCCC3)sc2n1 (centres undefined),>57,1%
CCN1CCN(C(=O)c2cc3cc4cc(OC)ccc4nc3s2)CC1,>57,-12%
COc1ccc(N2CC(C(=O)NCCC3=CCCCC3)CC2=O)cc1 (centres undefined),>57,7%
CC(C)Cc1nnc(NC(=O)CSc2nc(=O)cc(N)n2-c2ccccc2)s1,>57,-5%
COC(=O)[C@@]1(Cc2ccc(OC)cc2)[C@H]2c3cc(C(=O)N4CCCC4)n(Cc4ccsc4Br)c3C[C@H]2CN1C(=O)c1ccccc1,>57,?
Cc1cc(C(=O)CSc2nnc(-c3ccccc3F)o2)c(C)n1Cc1cccs1,>57,-16%
O=C(c1cnn2c(C(F)(F)F)cc(-c3ccc4c(c3)OCO4)nc12)N1CCCC1,>57,5%
Oc1ccccc1/C=N/c1c(-c2ccco2)nc2ccccn12,>57,-8%
Cc1noc(/C=C/N(C)C)c1S(=O)(=O)NC1CCCCC1,>57,?
O=c1cc(CN2CCN(c3ccccc3)CC2)c2c(ccc3ccccc32)o1,>57,-10%
Brc1ccc([C@H]2CN3CCSC3=N2)cc1,>57,3%
Cc1ccc(N2C(=O)C(Cl)=C(Nc3c(C)n(C)n(-c4ccccc4)c3=O)C2=O)cc1,>57,-29%
CCOc1ccc(NC(=O)C(C)O)c(NS(=O)(=O)c2ccc(CCNC(C)=O)cc2)c1 (centres undefined),>57,3%
Brc1cc(Br)c2ncnc(N3CCCCC3)c2c1,>57,nt
Cc1cc(OCc2nnc(SCC(=O)OC3CCCCC3)o2)ccc1Cl,>57,-10%
O=C(NC1C2CC3CC(C2)CC1C3)C1CC1 (centres undefined),>57,14%
CC(=O)NC1C(=O)N=C(SCc2ccccc2)NC1=O (centres undefined),>57,14%
CCn1cc(C(=O)Nc2ccc(C(=O)N3CCCC3)cc2)c(=O)c2ccc(C)nc21,>57,-2%

# 14 of the compounds above, bar-delimited:
structure | Prx2 Sm inh | LT uptake inh
Cc1nc(=O)c(-c2ccccc2)c(C)n1CC1CCCO1 (centres undefined) | >57 | 7%
O=C(OCC(=O)N1CCCC1)c1ccco1 | >57 | 11%
Cc1cc(S(=O)(=O)N(Cc2ccc(F)cc2)CC2CCCO2)ccc1-n1cnnn1 (centres undefined) | >57 | ?
CCCCSC(=O)Nc1ccccc1 | nt | -15%
CCC(C)[C@H](NC(=O)NCc1cccs1)C(=O)O (some centres undefined) | >57 | -1%
CCOC(=O)C1CCCN(C/C(O)=C(\C#N)c2nc(-c3ccccc3)cs2)C1 (centres undefined) | >57 | 5%
CCOC(=O)Cc1nnc2c(Nc3ccc(C)cc3)nc3nonc3n12 | >57 | -25%
COc1cc(-c2nnc(-c3cccnc3)o2)cc(OC)c1OC | >57 | -22%
CCOc1cc(NS(C)(=O)=O)c(OCC)cc1NC(=O)c1cccs1 | >57 | 5%
O=C(Cc1ccccc1)Nc1ccccc1CO | >57 | nt
O=C(Cn1c(CN2CCCCC2)nc2ccccc2c1=O)NCc1ccco1 | >57 | -17%
COc1ccc(S(=O)(=O)CCC(=O)Nc2c(C)n(C)n(-c3ccccc3)c2=O)cc1 | >57 | 6%
COc1ccc(CCNC(=O)C2CCN(Cc3nc(-c4ccccc4C)oc3C)CC2)cc1OC | >57 | ?
CCC(c1nnc(SCc2nc3ccccc3s2)n1Cc1ccccc1)N(C)C (centres undefined) | >57 | -10%
